Assay outcomes (PubChem BioAssay)
VACV Venus inh: vaccinia inhibition (Venus reporter); Vaccinia virus Venus reporter expression, fluorescence; Potency, µM (titrated, usually from 36.5 µM), for the others: top-dose activity change, negative = inhibition, actives largely listed as inhibitors; 0.46% of 330,000 active; active means well fitted inhibition curve with a large enough effect; inconclusive means small, poorly fitted or top-dose-only effect; inactive means no such curve, though single readings can be large or run the other way; tested in A549 cells; also: nearly all actives have a fitted effect of over 30% in size; inactives centre near -10
Vaccinia mCherry: vaccinia inhibition (mCherry reporter); Vaccinia virus mCherry reporter infection, fluorescence; about a quarter of the inactives have no number; Potency, µM (series often up to 36.5 µM), for inactives: top-dose activity change, negative = inhibition, most hits filed as inhibitors; 0.63% of 310,000 active; active = well fitted inhibition curve with a large enough effect; inconclusive = small, poorly fitted or top-dose-only effect; inactive = no such curve, though single readings can be large or run the other way; tested in A549 cells; also: nearly all actives have a fitted effect of over 35% in size; inactives centre near -10
* marks the source's active call; other numbers are inactive results; i = inactive; u = inconclusive; x = no result given; & = joins results of further samples; [ ] = remark or other dose. % is scaled to controls: 0 for no effect and ±100 for the full control effect; potency is read from the fitted curve at half-maximal effect. Random draw from the library; about 0.88% have a hit in one of these screens.

SMILES	VACV Venus inh	Vaccinia mCherry
COc1ccc(NC(=O)CSC2=NC(=O)CC(C)=N2)cc1	-1.6%	-5.1%
Cc1ccc(CN(CC(=O)NCc2ccccn2)S(=O)(=O)c2ccccc2)cc1	-12.7%	i
COc1ccc(OC)c(NC(=O)C(CC(C)C)NC(=O)C2CCCCC2)c1 (centres undefined)	-11.5%	-10.9%
COc1ccc2[nH]c(=O)c(CN(Cc3nnnn3Cc3ccco3)C3CCCCC3)cc2c1	2.7%	-18.4%
Cc1ccn2c(NC3CCCCC3)c(-c3cccc(-c4cccc(Cl)c4)c3)nc2c1	-24.3%	-45.4%
CC(C)Oc1cccc(C(=O)C2CCCN(C(=O)c3ccnn3C)C2)c1 (centres undefined)	-11.7%	-4.5%
CC1(C)CC(=O)C2=C(C1)OC1=C(C(=O)CC(C)(C)C1)C2c1cccc([N+](=O)[O-])c1	-10.6%	-15.6%
CC(C)Oc1ccc(CNC(=O)C2COc3ccccc3C2)cc1 (centres undefined)	-3.9%	2.6%
COCCNC(=O)C(c1ccc(O)cc1)N(C(=O)CCC(=O)Nc1nccs1)c1ccc(C)cc1 (centres undefined)	-3.6%	-11.6%
C=CCNC(=O)c1onc(CSc2ccccc2F)c1C(=O)O	-1.8%	-7.2%
COc1ccc(N(C(=O)Cn2nnc3ccccc32)C(C(=O)NCc2ccco2)c2ccncc2)cc1 (centres undefined)	-4.8%	1.2%
O=C(c1cnc2c(c1)COc1ccccc1-2)c1ccccc1O	-5.3%	-14.3%
CCc1ccccc1N(C)C(=O)Nc1cn(CC(C)C)c(=O)c2ccccc12	-5.5%	-13.5%
CCCOC1CCCN(C(=O)c2ccc(OC3CCN(Cc4ccccn4)CC3)cc2)C1 (centres undefined)	-19.3%	-15.6%
Cc1ccc(CNC(=O)CNC(=O)c2ccco2)cc1	-11.5%	-8.2%
O=C(NCC(=O)N1CCC(Cc2ccccc2)CC1)c1ccccc1F	-17.5%	-4.5%
COc1ccc(CCNC(=O)CCNS(=O)(=O)c2cccc3nonc23)cc1OC	-7.0%	i
O=C(N(c1ccccn1)c1ccccn1)C12CC3CC(CC(C3)C1)C2	-0.6%	-2.1%
CCC(CC)c1nn2c(=O)cc(COc3ccc(NC(=O)c4ccccc4Cl)cc3)nc2s1	-7.7%	u
O=C(OCc1cc(=O)n2nc(C3CC3)sc2n1)c1cccc(NC(=O)c2ccccc2Cl)c1	-22.3%	-24.1%
c1ccc2c(c1)OCC(C1=NCCN1)O2 (centres undefined)	-10.3%	-9.9%
COc1ccc(OC)c(NS(=O)(=O)c2ccc3c(c2)CCCN3C(=O)C2CCC2)c1	-17.9%	-13.2%
O=C(CSc1nc2ccccc2s1)Nc1cc(S(=O)(=O)N2CCOCC2)ccc1O	-4.4%	-18.5%
O=C1C[C@@H](c2ccccc2)Oc2cc(O)cc(O)c21	-11.2%	i
Cn1c(Cl)c(/C=N/OC(=O)c2cccc(Cl)c2)c2ccccc21	-14.6%	x
COc1ccc(-c2nc(NC(C)=O)sc2-c2ccccc2)cc1	0.8%	-4.1%
COCc1cc(/C=N\NC(=O)COc2ccc(Cl)cc2)ccc1OC	-3.4%	-11.3%
O=C(Nc1ccc(F)cc1)c1ccc(-n2cnc3cccnc32)cc1	-2.5%	-15.1%
O=C(O)c1cc(-c2ccc(N3CCOCC3)cc2)nn1-c1ccccc1Cl	-15.6%	-1.3%
O=C(O)c1cc(N2CCCC2)ccn1	-13.0%	-13.8%
COc1cc(CC(=O)Nc2ccc(Cl)c(C(F)(F)F)c2)cc(OC)c1OC	-13.0%	-14.7%
CCOc1ccc(CN(C)CC(=O)Nc2cccc3ccccc23)cc1OC	-15.0%	-8.5%
COc1cccc(N2C(=O)C(CC(=O)Nc3ccccc3)N(CCc3sccc3C)C2=O)c1 (centres undefined)	-6.1%	-8.2%
COC(=O)c1c(NC(=O)C2CC2)sc2c1CCN(C(C)=O)C2	-0.7%	i
O=Cc1ccccc1Oc1ccccc1	-19.4%	x
CCNC(=O)CSc1nnc(-c2cccs2)o1	-6.7%	i
O=C(NCc1ccncc1)c1ccc(Cl)c(S(=O)(=O)N2CCCCC2)c1	-12.6%	-13.0%
Cn1c(NCCN2CCCC2)nc2cc(-c3cccc(C(F)(F)F)c3)sc2c1=O	-17.3%	13.5%
CCn1cc(C(=O)N2CCN(c3cccc(C)c3)C(C)C2)c(=O)c2cc(S(=O)(=O)N3CCOCC3)ccc21 (centres undefined)	0.4%	i
CC(Cn1cncn1)C(=O)N1CCN(S(=O)(=O)c2ccc(Cl)cc2)CC1 (centres undefined)	-6.1%	-19.5%
COc1cc2oc(=O)cc(CN3CCOCC3)c2cc1Cl	0.2%	24.1%
CC(=O)NCCC(=O)Nc1nc2c(ccc3ccccc32)s1	8.1%	-20.4%
CC(=O)C1=C(O)C=C(c2ccco2)CC1c1ccco1 (centres undefined)	2.9%	-7.4%
Cc1ccc(N2C(=O)CS(=O)(=O)C23C(=O)N(Cc2ccccc2C)c2ccccc23)cc1Cl (centres undefined)	-6.3%	-7.4%
COc1ccc(/C(N)=N/O)cc1O	-9.8%	-12.1%
CC(=O)Nc1ccc(CN2CCC(CO)(CCOc3ccccc3)CC2)cc1	-15.9%	i
COc1ccc(-c2cc(C(F)F)n3ncc(C(=O)N4CCSCC4)c3n2)cc1	u	u
CN(CC(=O)Nc1ccccc1Br)C(=O)CCc1nc2ccccc2c(=O)[nH]1	-15.1%	-18.8%
COc1ccc(OC)c(NC(=O)CCNS(=O)(=O)c2cccc3nsnc23)c1	-13.5%&-16.6%	-0.2%&-16.9%
O=C(CCC1CCCCC1)NC1=NCCS1	-16.6%	i
O=C(O)CC1(CC(=O)Nc2nccs2)CCCCC1	-16.9%	i
COCc1nnc(NC(=O)c2c(-c3c(Cl)cccc3Cl)noc2C)s1	-17.4%	-3.6%
Cc1onc(-c2ccccc2Cl)c1C(=O)NCc1ccco1	-4.4%	i
CCN(CC)CCCN1C(=O)c2oc3ccccc3c(=O)c2C1c1cccnc1 (centres undefined)	-0.8%	x
[N-]=[N+]=NC1C[C@H](n2ccc(=O)[nH]c2=O)O[C@@H]1CO (some centres undefined)	-7.1%	-9.6%
CCC(=O)N1CCc2cc(OC)c(OC)cc2C1COc1ccc(OC)cc1 (centres undefined)	-5.3%	-14.6%
COc1ccc(C=CC(=O)c2ccc3cc(OC)c(OC)cc3c2)cc1OC	u	u
Cc1cccc(CNC(=O)c2ccc(C)c(-n3c(C)nc4cccnc43)c2)c1	-9.7%	i
O=C(c1cc(-c2ccc(Cl)cc2)on1)N1CCN(c2ccccc2)CC1	-6.4%	i
N=C1SCC(=O)N1c1ncc(Cc2ccc(F)cc2)s1	-19.6%	u
Further structures follow.
SMILES	VACV Venus inh	Vaccinia mCherry
COc1ccc(NC(=O)c2cc3c(CO)cnc(C)c3oc2=Nc2cccc(C)c2)c(OC)c1	-23.2%	-1.8%
CC1CCN(C(=O)c2ccc(CSc3ccc(Cl)cc3)cc2)CC1	-17.7%	-27.0%
N#Cc1cnn(-c2ncnc3sc(-c4ccccc4)cc23)c1N	-15.9%	-10.5%
COc1ccc2c(c1)c(C(=O)N1CCN(C)CC1)c(C)n2-c1ccccc1	-17.8%	-23.5%
NC(=O)C1CCCc2c1n(Cc1ccccc1)c1ccccc21 (centres undefined)	-9.1%	-0.6%
O=C(Nc1ccc2oc(-c3cccc4c(Br)cccc34)nc2c1)c1ccc(F)cc1	13.8%	2.6%
c1ccc(-n2ccnc2)cc1	-11.3%	i
CCCCN(C(=O)c1c(C)noc1C)c1c(N)n(CCCC)c(=O)[nH]c1=O	2.5%	-9.5%
COC(=O)COc1ccc(S(=O)(=O)Nc2ccc3c(c2)OCO3)cc1	0.6%	-14.4%
Cc1ccc(CNC(=O)C(NS(=O)(=O)c2cccs2)C(C)C)cc1 (centres undefined)	-7.1%&-6.0%	1.1%&-20.5%
CC(C)(C)n1nnnc1C(c1cc2ccccc2o1)N(Cc1ccccc1)Cc1ccccc1 (centres undefined)	-23.0%	u
NC1=NC[C@@H](Cc2ccc(O)cc2)N1CCc1cc(C(F)(F)F)cc(C(F)(F)F)c1	-19.8%	-0.5%

Part of the list above, with values under each structure:
Results follow in this order: VACV Venus inh | Vaccinia mCherry
Cc1ccc(CNC(=O)C(NS(=O)(=O)c2cccs2)C(C)C)cc1 (centres undefined)
  -7.1%&-6.0% | 1.1%&-20.5%
CC(C)(C)n1nnnc1C(c1cc2ccccc2o1)N(Cc1ccccc1)Cc1ccccc1 (centres undefined)
  -23.0% | u

Continued:
SMILES	VACV Venus inh	Vaccinia mCherry
Cc1cc2ncc(-c3ccc(Cl)cc3)cn2n1	-16.7%	i
COc1ccccc1CNC(=O)c1ccc(CNc2c(N3CCCC3)c(=O)c2=O)cc1	-12.5%	-7.4%
O=C(Nc1c(F)cccc1F)c1ccc2c(c1)CCN2S(=O)(=O)c1ccccc1	-24.6%	-12.8%
CC(=O)c1cccc(-c2ccnc3c2CC(C(=O)NCCC(F)(F)F)O3)c1 (centres undefined)	-22.4%	7.1%
c1ccc(-c2csc3ncnc(Sc4nnnn4-c4ccccc4)c23)cc1	-29.3%	u
CCCCc1c(O)c2ccccc2n(CCCC)c1=O	-0.7%	-16.3%
CC1(C)[N+]([O-])=C2C(=[N+]([O-])C1(C)C)c1ccccc1/C2=N\O	-22.2%	x
O=C(O)COn1c(-c2ccccc2)nc2ccc([N+](=O)[O-])cc21	-7.2%	i
CC(=O)c1ccc(NC(=O)C2CCC(CNS(=O)(=O)c3ccc(Br)s3)CC2)cc1 (centres undefined)	2.6%	-4.8%
CCn1c(SCC(=O)NCc2ccco2)nnc1-c1ccc(N)cc1	-15.5%	-14.1%
CC1CCC(=NNC(=O)c2ccccc2-n2cccc2)CC1 (centres undefined)	-6.3%	-10.9%
CCC(C(=O)Nc1ccc2c(c1)OCCO2)n1c(=O)[nH]c2ccccc2c1=O (centres undefined)	-18.8%	-11.6%
CCN1C(=O)/C(=C/C=C2/Sc3ccccc3N2CCO)SC1=S	118.2%[activator]	81.6%[activator]
COc1ccc(CN(Cc2ccco2)c2cnc(S(C)(=O)=O)nc2C(=O)Nc2ccc(C)cc2C)cc1	-10.1%	-14.1%
COc1nc(OC)nc(N2CCC(C(=O)NCc3ccc(F)cc3)CC2)n1	-6.3%	-11.6%
CC(=O)Nc1ccc(NC(=O)/C=C/c2cccc(C(F)(F)F)c2)cc1	-7.2%	-11.9%
Cc1cc(C)cc(NC(=O)c2cccc(N3C(=O)C4C5C=CC(C5)C4C3=O)c2)c1 (centres undefined)	-9.4%	-18.0%
CSc1ncc(C(=O)Nc2ccccc2C(=O)c2ccccc2)c(C)n1	-1.1%	3.5%
O=S(=O)(NC1=NCCC1)c1cccc(NC(=S)NCCc2ccccc2)c1	-4.3%	-7.0%
Cc1ccc(S(=O)(=O)N2[C@@H](c3ccc(Cl)cc3)C(C(=O)O)=CC[C@H]2c2cccc(C)c2)cc1	-13.6%	i
COc1ccccc1NC(=O)c1oc2ccccc2c1NC(=O)Cc1ccccc1	u	-26.1%
CCOc1ccc(N(C(=O)c2snc(C(N)=O)c2N)C(C)C(=O)NC2CCCCC2)cc1 (centres undefined)	-20.5%	u
COCCn1c(C)cc(C(=O)CSc2nnc(C)s2)c1C	-1.9%	-14.6%
COc1ccc(N(CC(=O)NCc2ccc(F)cc2)C(=O)c2snc(C(N)=O)c2N)cc1	-6.2%	-13.9%
COc1ccc(Sc2nnc(Cc3ccccc3)c3ccccc23)cc1	-20.1%	-6.4%
Cc1noc(C)c1COc1ccccc1C(=O)NCCc1ccc(S(N)(=O)=O)cc1	-3.5%	i
CC(C)N(CC(O)COc1ccc(CC(N)=O)cc1)CC(O)COc1ccc(CC(N)=O)cc1 (centres undefined)	-11.3%	i
O=C(NCCCN1CCCCC1)c1ccc2c(c1)NC(=O)C(N1CCCCC1)S2 (centres undefined)	-3.8%	-23.6%[1.46 µM]
O=C(CCS(=O)(=O)c1cc(Br)cc2c1N(C(=O)C1CC1)CC2)NCc1ccc(Cl)cc1	-11.8%	-13.8%
O=C(COC(=O)Cc1ccc(Cl)cc1)Nc1c(F)cccc1F	-11.7%	i
N#CCCN1CCN(CCC#N)c2ccccc21	0.8%	-20.0%
Nc1c(C=C2C=CC(=O)C=C2)c(=O)nc2sc(CC(=O)N3CCOCC3)nn12	-12.2%	i
Cc1cc(C=O)c(C)n1-c1cc(C(=O)O)cc(C(=O)O)c1	-8.8%	i
Cc1c(Cl)cccc1N=C(N)N=C(N)N	2.8%	i
C/C(O)=C(/C=Nc1ccccc1)C(=O)Nc1ccccc1	1.3%	-10.6%
N#Cc1ccc(C(=O)NCC(c2ccco2)N2CCCCC2)cc1 (centres undefined)	16.6%	x

Entries of single compounds from above. Order of screens: VACV Venus inh, Vaccinia mCherry
C/C(O)=C(/C=Nc1ccccc1)C(=O)Nc1ccccc1 is listed as 1.3%, -10.6%
N#CCCN1CCN(CCC#N)c2ccccc21 is listed as 0.8%, -20.0%
N#Cc1ccc(C(=O)NCC(c2ccco2)N2CCCCC2)cc1 (centres undefined) is listed as 16.6%, x
Cc1c(Cl)cccc1N=C(N)N=C(N)N is listed as 2.8%, i
Cc1cc(C=O)c(C)n1-c1cc(C(=O)O)cc(C(=O)O)c1 is listed as -8.8%, i

The results go on.
SMILES	VACV Venus inh	Vaccinia mCherry
Cc1ccc(N2C(=O)c3ccccc3NC2c2ccccc2O)cc1 (centres undefined)	11.6%	-3.4%
CC(Oc1ccc2ccc(=O)oc2c1)C(=O)NCC1CCC(C(=O)O)CC1 (centres undefined)	-1.7%	-4.6%
O=[N+]([O-])c1ccc(N2CC2)c([N+](=O)[O-])c1	17.4%	u
CCCCn1c(=N)c(S(=O)(=O)c2ccc(C)cc2)cc2c(=O)n3cc(C)ccc3nc21	-8.6%	-13.9%
